# From PubChem
# VACV mCherry inh: inhibitors of vaccinia virus infection (mCherry reporter signal); Vaccinia virus mCherry reporter infection, fluorescence; about a quarter of the inactives have no number; Potency, µM (titrated, usually from 36.5 µM), for inactives: at the top dose activity change, negative = inhibition, actives largely listed as inhibitors; hit rate 0.63% among 310,000; AID 720579; active = well fitted inhibition curve with a large enough effect; inconclusive = small, poorly fitted or top-dose-only effect; inactive = no such curve, though single readings can be large or run the other way; tested in A549 cells; further: nearly all actives have a fitted effect of over 35% in size; inactives centre near -10
# VACV Venus inh: vaccinia inhibition (Venus reporter); Vaccinia virus Venus reporter expression, fluorescence; Potency, µM (series often up to 36.5 µM), for the others: at the highest dose activity change, negative = inhibition, most hits filed as inhibitors; hit rate 0.46% among 330,000; active means well fitted inhibition curve with a large enough effect; inconclusive means small, poorly fitted or top-dose-only effect; inactive means no such curve, though single readings can be large or run the other way; tested in A549 cells; further: nearly all actives have a fitted effect of over 30% in size; inactives centre near -10
# Numbers without * were called inactive; i = inactive; ? = inconclusive; nt = no result given; & = joins results of further samples; [ ] = remark or other dose. On the % scale 0 is the no-effect control and ±100 the full control effect; potency means the concentration at half of the fitted maximal effect. The order is random, and some 0.87% of all compounds hit somewhere here.
nr	structure	VACV mCherry inh	VACV Venus inh
1	CCN(CC)C(=O)CSc1nnnn1-c1ccc(F)c(Cl)c1	i	-6%
2	CN1CCN(CC(=O)N(C)c2nc(-c3ccccc3)cs2)CC1	nt	-2%
3	Cc1cc(C(=O)N2CCCC(C(=O)c3ccc4ccccc4c3)C2)nn1C (centres undefined)	-14%	7%
4	CC(C)NC(=O)C1CCCN(S(C)(=O)=O)C1 (centres undefined)	-13%	-10%
5	CCCS(=O)(=O)c1ncc(Cl)c(C(=O)Nc2sc3c(c2C(=O)NCC)CCCC3)n1	-21%	-23%
6	Cc1ccc(-c2[nH]c3cc(C(N)=O)ccc3c(=O)c2O)cc1	-17%	8%
7	O=S(=O)(c1ccccc1)N1CCC(O)(CN2CCN(c3ccccc3)CC2)CC1	-10%	-9%
8	O=C(CN1CCN(c2cnn(-c3ccccc3)c(=O)c2Cl)CC1)NC1CCS(=O)(=O)C1 (centres undefined)	-15%	-9%
9	COc1ccc(N=c2nc(-c3ccc(C)cc3)n(-c3ccccc3)s2)cc1	-29%	?
10	CC(C)(C)c1cc(NC(=O)c2ccco2)no1	2%	-8%
11	CC(C)CCn1c(=S)[nH]c2ncccc2c1=O	-11%	-5%
12	Cc1ccccc1NC(=O)Nc1ccccc1Br	-15%	-8%
13	COc1cccc(CC2(CO)CCCN(Cc3[nH]c4ccc(C)cc4c3C)C2)c1 (centres undefined)	11µM*	?
14	COc1ccc(C(O)c2ncc(-c3ccccc3OC)[nH]2)cc1 (centres undefined)	-26%	-11%
15	O=C(CCl)N(C/C=C/c1ccccc1)c1ccc2c(c1)OCCO2	-6%	-25%
16	C[C@@H]1Cn2cnc(C(=O)N[C@@H](C)c3ccccc3)c2C(=O)N1	i	-23%
17	COc1ccc(CCNC(=O)COC(=O)c2cc(OC)c(OC)cc2OC)cc1	-6%	-6%
18	COc1ccc2cc(CN(C)C(=O)CN3C(=O)NC4(CCCC4)C3=O)ccc2c1	-24%	-20%
19	Cc1ncc(CO)c2c1OC(C)(C)OC2	-15%	-8%
20	CCC(=O)N1CCc2cc(CNS(=O)(=O)c3ccc(Cl)s3)ccc21	i	-16%
21	CCOC(=O)CSc1ncc(-c2ccc([N+](=O)[O-])cc2)[nH]1	i	-11%
22	CCCCOc1cccc(C2c3c(oc4ccccc4c3=O)C(=O)N2c2ccccn2)c1 (centres undefined)	-7%	-11%
23	COCCN(Cc1cc2cc(C)ccc2n2nnnc12)C(=S)Nc1ccccc1C	1%	-22%
24	C[C@H](O)[C@@H]1CN2CCc3c([nH]c4ccccc34)[C@@H]2C[C@@H]1N(C)C(=O)Nc1ccccc1	-11%	-13%
25	CCOc1cc(/C=C2\C(=N)N3N=CSC3=NC2=O)ccc1OS(=O)(=O)c1ccccc1	-8%	?
26	c1ccc(Nc2ncnc3sc4c(c23)CCC4)cc1	-21%	-15%
27	CCn1c(C)nc2cc(C(=O)NNC(=S)Nc3ccccc3Cl)ccc21	-6%	-23%
28	COC(=O)/C(C#N)=C/c1c(N2CCCCCC2)nc2ccccn2c1=O	-16%	-10%
29	Cc1noc(C(=O)Nc2ccc(F)c(Cl)c2)c1Cl	9%	2%
30	COc1ccc(NC(C)=O)cc1S(=O)(=O)Nc1ccccc1C(=O)N1CCCC1	-16%	-6%
31	C=CCNc1nc2c(c(=O)[nH]c(=O)n2C)n1CCOc1ccccc1	-2%	-15%
32	O=C(NC(=S)Nc1cc(Cl)ccc1O)c1cccc(Br)c1	-8%	-10%
33	CC(C)OP(=O)(OC(C)C)C(C)NC(=O)Cc1ccccc1 (centres undefined)	i	-1%
34	CSC1=NSC2=NC(=O)/C(=C/c3coc4ccccc4c3=O)C(=N)N12	-22%	7%
35	Clc1ccc(OCc2nc3ccccc3[nH]2)cc1	-9%	-8%
36	CC(C)CCN1C(N(C)C)=NC[C@@H]1C	i	-2%
37	CC(=O)NCCNS(=O)(=O)c1ccc(C)c([N+](=O)[O-])c1	-16%	-4%
38	CCCCN(CCCC)c1ccc(/C=C2\C=Cc3ccccc32)cc1	26%	10%
39	CCCC(C)(C)C(=O)N1CCC1(C)C(=O)Nc1cccc(OC)c1 (centres undefined)	i	-6%
40	NC(c1csc(Nc2ccccn2)n1)c1ccccc1Cl (centres undefined)	-16%	-13%
41	CCCc1cc(=O)[nH]c(SCC(=O)NC2CCCCC2)n1	-16%	-2%
42	COC(=O)/C(=C\Nc1ccc(Cl)cc1Cl)NC(=O)c1ccc(Cl)cc1Cl	nt	-17%
43	O=C(Nc1nccs1)C1CCN(S(=O)(=O)c2cccnc2)CC1	-9%	-14%
44	COc1ccc(-c2ccc(=N)n(CCCC(=O)O)n2)cc1	-12%&6%	-10%&-3%
45	O=C(c1cc2ccccc2cc1OCC(O)CN1CCCCC1)N1CCCCC1 (centres undefined)	i	-22%
46	CCOc1ccc(CNC(=O)c2ccc3c(c2)nc2n3CCOC2)cc1OC	-11%	-8%
47	Cc1nn(-c2ccc3nnc(C)n3n2)c(C)c1CCC(=O)Nc1ccc(OC(F)(F)F)cc1	-19%	-16%
48	CCC(=O)c1ccc(OCC(=O)c2ccc3c(c2)NC(=O)CO3)cc1	-5%[7.34 µM]	5%[7.34 µM]
49	COC(=O)c1ccc(OC)c(CN2C(=O)N(c3ccc(C(C)=O)cc3)S(=O)(=O)c3ccccc32)c1	-7%	-14%
50	COc1ccc(S(=O)(=O)N2CCN(C)CC2)cn1	i	-4%
51	Cc1cc(=O)oc2cc3c(cc12)OCCN3	-18%	-3%
52	COCc1cc(/C=N\NC(=O)COc2ccccc2)ccc1OC	-9%	2%
53	CCC1(CC)NC(=S)NC1=S	-12%	-6%
54	Cc1ccc(CN2CN(S(=O)(=O)c3cccs3)c3nc4ccccc4nc32)cc1	nt	-16%
55	Cc1ccc(S(=O)(=O)N(C)c2ccc(C(=O)N(C)Cc3nc4ccccc4c(=O)[nH]3)cc2)cc1	?	?
56	COn1c(=O)c(-c2ccc(Cl)cc2)[n+]([O-])c2ccccc21	-21%	-8%

# Later entries.
nr	structure	VACV mCherry inh	VACV Venus inh
57	COc1cccc(-c2nc(N3CCC(C)CC3)c3ccccc3n2)c1O	?	-28%
58	Cc1ccc(CNC(=O)c2ccc(N3CCC4(CC3)CC(c3ccccc3)=NO4)c(NC(=O)c3ccco3)c2)cc1	-19%	-8%
59	O=S(=O)(Nc1cccc(Cl)c1)c1cccc(-n2cnnn2)c1	-3%	-13%
60	Cc1ccc(CC(=O)OCC(=O)c2ccc[nH]2)cc1C	-17%	-16%
61	Oc1ccccc1/C=N/Nc1cc(N2CCCC2)nc(N2CCCC2)n1	?	?
62	Cc1cccc(N2C(=O)N3[C@H]4c5ccccc5OC[C@@H]4[C@@H](c4ccccc4)[C@@]3(C)C2=O)c1	-12%	-8%
63	CCOC(=O)c1c(/N=C/c2ccc(C)cc2O)sc2c1CCC2	-24%	-6%
64	O=C1c2ccccc2S(=O)N1c1cccc(F)c1 (centres undefined)	-26%	-15%
65	COc1cccc(/C=N/NC(=O)COc2cccc3cccnc23)c1O	13µM*	-25%
66	COc1ccc(CCNC(=O)C(=O)Nc2ccc(C)c(C)c2)cc1OC	-13%	-3%
67	COCCn1c(N)c(N(Cc2ccccc2)C(=O)Cc2ccccc2F)c(=O)[nH]c1=O	-8%	-4%
68	Cc1ccc(OCC(=O)N(Cc2ccc(N(C)C)cc2)C2CCS(=O)(=O)C2)cc1 (centres undefined)	i	-20%
69	CCn1c(Sc2ccc([N+](=O)[O-])cn2)nnc1-c1ccco1	13µM*	?
70	N=C(N)c1ccc(N=Nc2c(O)ccc3c2[nH]c2ccccc23)cc1	-24%	?
71	COc1ccc([C@H]2C[C@@H](n3cc(-c4ccc(F)cc4)nn3)[C@H](O)CN2CC2CCCCC2)cc1	-20%	?
72	Cc1ccc(C)c(-n2c(SCC(=O)Nc3nonc3C)nnc2-c2ccoc2C)c1	?	-16%
73	Cc1onc(-c2c(F)cccc2Cl)c1C(=O)OCC(=O)N1C(C)CCCC1C (centres undefined)	3%	5%
74	COc1cc(F)ccc1-c1cc(C(=O)NCc2ccc(F)cc2)[nH]n1	-3%	7%
75	Nc1ccn([C@@H]2O[C@H](C(=O)N[C@H]3c4ccccc4C[C@H]3O)[C@@H](O)[C@H]2O)c(=O)n1	43%[activator]	0%
76	Cc1cccc(NC(=O)CCOc2ccccc2)c1C	-22%	-20%
77	CCOC(=O)C1CCCN(C(=S)Nc2ccc(F)cc2)C1 (centres undefined)	-1%	0%
78	Cc1ccccc1-c1nc(SCC(=O)N(C)c2ccccc2)c2c(=O)n(C)c(=O)n(C)c2n1	-15%	-8%
79	Brc1c(OCCOCCn2cncn2)ccc2ccccc12	-30%	-25%
80	O=C(/C=C/c1ccccc1[N+](=O)[O-])Nc1ccc(S(=O)(=O)Nc2ncccn2)cc1	-11%	-5%
81	CCc1ccccc1NC(=O)CN1C(=O)C2CCCN2c2ccc(S(=O)(=O)N(CC)CC)cc21 (centres undefined)	-5%	4%
82	CCOC(=O)CC(N)c1cccc([N+](=O)[O-])c1 (centres undefined)	1%	3%
83	Cc1cc(C(=O)Nc2ccon2)c(C)o1	-13%	-1%
84	COc1ccc(NC(=O)C(Cc2cc(C)cc(C)c2)C(C)C(=O)O)cc1 (centres undefined)	i	-9%
85	O=C(O)c1cc(NC(=O)c2cccc(F)c2)cc(NC(=O)c2cccc(F)c2)c1	i	-9%
86	c1cncc(C2CCCN2)c1 (centres undefined)	-2%	-20%
87	COc1ccc(-c2ccccc2)c2oc(-c3ccco3)cc(=O)c12	i	?
88	Cc1cc(C)c(C#N)c(SCC(=O)N(CC(C)C)C2CCS(=O)(=O)C2)n1 (centres undefined)	-20%	-15%
89	O=C(O)CCn1cc(/C=C2/NC(=S)N(c3ccccc3)C2=O)c(-c2ccccc2)n1	-8%	1%
90	O=C(CN1C(=O)CN=C(c2ccccc2)c2ccccc21)Nc1cccc(C(F)(F)F)c1	-13%	-15%
91	COc1cc(/C=N\n2nnnc2N)ccc1OCc1ccc(F)cc1	nt	-11%
92	O=C(Nc1ccccc1)Nc1nnc(Cc2ccc([N+](=O)[O-])cc2)s1	-13%	-18%
93	Cc1ccc2c(c1)c1c(c(=O)n(-c3ccccc3C)c(=O)n1Cc1cccc(F)c1)n2C	?	-5%
94	O=C1C2C3C=CC(CC3)C2C(=O)N1/N=C/c1ccc(O)cc1 (centres undefined)	i	-5%
95	COc1ccc(S(=O)(=O)N(CC(=O)Nc2cccnc2)c2ccccc2OC)cc1	i	-8%
96	CCN(CC)S(=O)(=O)c1ccc2c(c1)N(CC(=O)NCCCN1CCN(c3cc(C)ccc3C)CC1)C(=O)CO2	?	-22%
97	O=C(/C=C/c1ccccc1[N+](=O)[O-])NCc1ccc(Cl)cc1	-3%	-14%
98	O=C(Nc1ccc(NC(=O)c2ccc([N+](=O)[O-])o2)cc1Cl)c1ccco1	-22%	-18%
99	CCCNS(=O)(=O)c1ccc(CCC(=O)NCC2CCCO2)cc1 (centres undefined)	-9%	-8%
100	CC1Cc2ccccc2N1C(=O)CCN1C(=O)C2C3C=CC(C3)C2C1=O (centres undefined)	?	?
101	CCN(c1ccccc1)S(=O)(=O)c1ccc(NC(=O)c2cc(=O)c3ccccc3o2)cc1	?	?
102	CCNC(=S)NN=C1c2ccccc2-c2ccccc21	-23%	-19%
103	O=c1ccc(-c2ccccc2)n[nH]1	0%	-1%
104	COc1cc(CNC[C@H]2O[C@@H](n3ccc(N)nc3=O)[C@H](O)[C@@H]2O)ccc1OCc1cccc(Cl)c1	-8%	1%
105	COCCn1nnnc1CN(CCCN1CCOCC1)Cc1cc2c(C)ccc(C)c2[nH]c1=O	nt	0%
106	O=C(CNC(=O)C(c1ccccc1)c1ccccc1)OCC(=O)c1cccc2ccccc12	-10%	-17%
107	O=C1CCN(CCc2ccccc2)CCN1[C@H](CO)c1ccccc1	-9%&-2%	-12%&-16%
108	COC(=O)Cc1ccc(NC(=S)Nc2ccc(N3CCOCC3)cc2)cc1	-22%	-2%
109	O=C(NC1CCCC1)c1ccc([N+](=O)[O-])s1	-24%	-16%
110	Cn1nc(C(F)(F)F)c(C(=O)Nc2ccc(F)cc2F)c1Cl	i	-5%
111	CCOCC(=O)N1CCN(c2ccc([N+](=O)[O-])cc2)CC1	i	-16%
112	CC1=C(C(=O)N(C)C)CC(CC(=O)NC(c2ccccc2)c2ccccc2)C(=O)N1Cc1ccc(C(C)(C)C)cc1 (centres undefined)	-13%	?
113	Cc1nc2ccccc2n1-c1ccccc1	-26%	-14%
114	Cc1c(C(=O)NNc2cc(=O)n(C)c(=O)n2C)cccc1[N+](=O)[O-]	-6%	9%
115	COc1ccc2nc(NC(=O)CSc3ccccc3)sc2c1	nt	-25%
